INS promoter inh – inhibitors of insulin promoter-driven GFP, primary screen, imaging, TRM-6 cells (human fetal islet line), eGFP reporter, cell count; reporter expression induced with tamoxifen; 130,000 compounds, 0.9% hits; inhibition, % at 2 µM;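 active = inhibition above the mean plus 3 SD, with well images judged a real hit on visual review, cut at about 60% in these data, passing the limit was not always enough; inconclusive = inhibition over the cutoff but images rejected on review; inactive = inhibition not above the cutoff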
RGS16-Gao – modulators of RGS16 binding to Galphao, primary screen, biochemical, human proteins, multiplexed bead flow cytometry; Regulator of G-protein signaling 16 (Homo sapiens) + Guanine nucleotide-binding protein …; bead-based flow cytometry RGS16-Galphao binding, fluorescence; actives lie on both sides; binding response (% of control), % at 10 µM; 220,000 compounds, 0.38% hits; AID 1441, 2008;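 active = below 25% or above 175%, edge rows of some plates excepted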;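 note: Galphao activated by GDP with aluminum fluoride before binding; 100% = wells without compound and 0% = beads without RGS; some results beyond the cut were filed as inactive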
PKD1 inh – inhibitors of human PKD1 kinase, biochemical, fluorescence polarization; PKD1 kinase fluorescence polarization assay; inhibition, %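 (about 10 µM by stock and volumes)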; 200,000 compounds, 0.056% hits;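 active = inhibition of 50% or more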;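 note: controls were vehicle for no effect and a reference inhibitor for full effect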
HSV replic up – enhancers of HSV replication in host cells, fold increase, host cell viability | HSV replication augmentation in cells | 220,000 compounds, 0.005% hits | AID 1956, 2009 | maximum fold increase;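 active = peak rise of 1.5-fold or more in the series; inconclusive = self-fluorescent or not available for retest; tested in PC3 cells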;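 note: first round at 10 µM; read as green reporter fluorescence; hits show the peak of a series up to 25 µM; 1 = signal of infected wells without compound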
GALR2 ag – GALR2 receptor agonists, primary screen, cell-based; GALR2-expressing cells, agonist activation read-out; activation, %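 (tested at 5 µM)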; Galanin receptor type 2 (Homo sapiens), O43603; 140,000 compounds, 0.48% hits;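 active = above mean plus 3 SD of all compounds, about 5% in these data, not always enough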;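 note: 0% = vehicle buffer wells and 100% = reference agonist at full effect; tested in CHO reporter cells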
Target sequence (O43603 whole entry, looked up): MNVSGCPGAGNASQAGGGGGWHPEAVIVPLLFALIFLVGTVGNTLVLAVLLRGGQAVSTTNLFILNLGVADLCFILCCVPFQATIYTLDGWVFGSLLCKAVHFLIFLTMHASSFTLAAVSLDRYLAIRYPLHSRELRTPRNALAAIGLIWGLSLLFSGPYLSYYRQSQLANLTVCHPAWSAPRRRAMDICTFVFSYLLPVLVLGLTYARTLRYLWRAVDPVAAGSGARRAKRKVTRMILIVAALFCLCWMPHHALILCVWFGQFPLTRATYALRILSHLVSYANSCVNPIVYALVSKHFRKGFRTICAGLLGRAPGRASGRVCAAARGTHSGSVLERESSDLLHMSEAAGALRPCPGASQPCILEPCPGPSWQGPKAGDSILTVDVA
INS promoter inh cell count – also measured in INS promoter inh; calls as there; normalized cell count, %; measured here: cell count, toxicity; reference of the scale not given here;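 cells exposed to compound for 48 h; stained nuclei by imaging scaled within each plate; lower means fewer cells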
HSV replic up primary fold – also measured in HSV replic up; calls as there; fold increase; compound at 10 µM; measured here: primary screen fold increase 10 uM; tested in PC3 cells;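 GFP signal in the first replicate; 1 = infected wells without compound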
* = called active by the depositor; i = inactive; ? = inconclusive; · = no result given.

SMILES | INS promoter inh | INS promoter inh cell count | RGS16-Gao | PKD1 inh | HSV replic up | HSV replic up primary fold | GALR2 ag
Cc1cc(C(=O)CSCc2nnc3n(CCC(C)C)c(=O)c4ccccc4n23)c(C)n1C | -22 | 94 | · | 1 | · | · | -0.2
Cc1nc2n(n1)C(c1ccccc1)C1=C(CC(c3ccco3)CC1=O)N2 (stereo not given) | · | · | 104 | -5 | i | 1.2 | 0.0
O=C(NC(=S)Nc1cccc2[nH]ncc12)c1ccccc1 | 40 | 144 | 102 | -1 | i | 0.85 | ·
CC(Sc1nnc(CNc2cccc3ccccc23)n1-c1ccccc1)C(=O)N/N=C/c1ccco1 (stereo not given) | · | · | 100 | -1 | i | 0.69 | -0.1
N#Cc1c2c(c(=S)n(-c3ccccc3)c1N)CCCC2 | -273 | 66 | 102 | -5 | ? | · | -3.5
CC(C)[C@H](NC(=O)NCCC1=CCCCC1)C(=O)O | · | · | 105 | · | i | 1.1 | ·
CCSc1nnc(NC(=O)c2cccs2)s1 | 7 | 96 | 100 | -10 | i | 0.89 | -1.4
O=C(c1coc2ccc(O)c(CN3CCOCC3)c12)C1CC1 | 50 | 136 | 84 | -16 | i | 1.1 | -1.1
CCNc1nc(NC(C)C)nc(NS(=O)(=O)c2ccc(N)cc2)n1 | 12 | 105 | 104 | 2 | i | 0.8 | -2.0
O=C(COC(=O)C1CC(=O)N(C2CCCCC2)C1)c1ccc(F)cc1 (stereo not given) | · | · | 106 | -8 | i | 0.99 | -1.2
O=S(=O)(Nc1cccc(Cl)c1)c1ccc2oc(=S)[nH]c2c1 | · | · | 103 | -4 | i | 0.84 | ·
C[C@@H](C(=O)NCc1ccc(S(C)(=O)=O)cc1)[C@H]1C[C@]1(C)[C@H](NC(=O)OCc1ccccc1)c1ccccc1 | -27 | 103 | 100 | -15 | i | 0.78 | 0.4
Cc1ccc2nc(SC(C)C(=O)N3CCOCC3)[nH]c2c1 (stereo not given) | · | · | 100 | 5 | i | 1.1 | ·
COC(CNC(=O)c1cccnc1)OC | · | · | 68 | 1 | i | 0.92 | ·
CNC(=O)c1cc2cc(Cl)cc(OC)c2oc1=O | 10 | 129 | · | -2 | i | 1.1 | -3.0
CCOC(=O)Cc1csc(NC(=O)c2ccc(OC)c(OC)c2)n1 | -7 | 183 | 94 | 8 | i | 0.94 | -1.2
O=c1c(/C=N/O)c(Nc2ccccc2)nc2ccccn12 | · | · | 104 | 8 | i | 0.79 | -2.7
Cc1ccc(S(=O)(=O)N(CC(=O)NCCC2=CCCCC2)Cc2ccccc2F)cc1 | -55 | 63 | 109 | 6 | i | 0.86 | -0.5
COc1cc2[nH]c(=S)n(CCN3CCCCC3C)c(=O)c2cc1OC (stereo not given) | 4 | 47 | 90 | -6 | i | 0.77 | -1.4
O=C(NCc1ccc(F)cc1)c1cnc2n(c1=O)CCS2 | · | · | 113 | -4 | i | 0.89 | -0.8
Cc1ccc(OCC(=O)NNC(=O)CCC(=O)Nc2ccc(C)cc2C)cc1 | 21 | 99 | 94 | -5 | · | · | -1.6
Cc1cc(N2CCCC(C(=O)Nc3cccc(Cl)c3)C2)n2ncnc2n1 (stereo not given) | · | · | 100 | -2 | i | 1.1 | ·
CC(=O)C1=C(C)NC(SCC(=O)Nc2nc3ccccc3s2)=C(C#N)C1c1ccc(Cl)cc1 (stereo not given) | · | · | 101 | 5 | i | 1.1 | 0.2
O=C(COC(=O)CCSc1ccc(Cl)cc1)Nc1ccc(F)cc1 | -45 | 61 | 77 | 1 | i | 1.1 | -0.4
O=C(CCN(CCO)Cc1ccccc1)Nc1ccc(Br)cc1 | · | · | 103 | 6 | i | 0.85 | -1.8
COc1ccc(C2c3[nH]c4ccccc4c3CCN2C(=O)c2cn3ccccc3n2)c(F)c1 (stereo not given) | · | · | 97 | 4 | i | 0.95 | ·
O=C1Cc2ccccc2C(c2ccc(Cl)cc2Cl)N1 (stereo not given) | · | · | 98 | · | i | 1.1 | ·
COc1cc(C)ccc1OCCOc1ccccc1Cl | · | · | 102 | 2 | i | 1 | -2.4
CCc1ccc(C2=NN(CCC(=O)NC(C)CCc3ccccc3)C(=O)CC2)cc1 (stereo not given) | -107 | 74 | 101 | -3 | i | 0.97 | ·
COc1ccc(CCN(C(=O)c2cccc(F)c2)C2CC(=O)N(c3ccccc3)C2=O)cc1 (stereo not given) | -29 | 147 | 94 | -5 | i | 0.91 | -1.7
COC(=O)CC1C(=O)NCCN1C(=S)NC(=O)CCc1ccccc1 (stereo not given) | 33 | 128 | 96 | -11 | i | 0.98 | ·
O=C(Nc1cc(=O)[nH]c2ncnn12)c1ccccc1 | 0 | 96 | 96 | -1 | i | 1 | 0.0
Cc1ccc(C2c3c(oc4ccccc4c3=O)C(=O)N2c2nncs2)cc1 (stereo not given) | · | · | 102 | · | i | 1.1 | ·
COc1ccccc1N1CCN(Cc2ccc(O)c3ncccc23)CC1 | 34 | 26 | 93 | -1 | i | 0.58 | -5.3
Nc1c(S(=O)(=O)c2cccs2)c2nc3ccccc3nc2n1Cc1cccs1 | 62 | 103 | 105 | 8 | i | 1 | 3.8
O=C(NCCCN1CCOCC1)c1cc2cc(Cl)cc(Cl)c2oc1=O | -3 | 62 | · | -17 | · | · | -3.1
Cc1ccc(/C=N/NS(=O)(=O)c2ccccc2)o1 | 17 | 112 | 32 | -9 | i | 1 | -1.0
FC(F)(F)c1cccc(NC(=S)NCCc2ccccn2)c1 | 20 | 188 | 87 | -8 | i | 0.84 | 0.6
C=CCc1cccc2cc(C(=O)NNC(=O)CC#N)c(=O)oc12 | · | · | 97 | · | i | 0.72 | ·
Cc1ccc(S(=O)(=O)NNC2=NS(=O)(=O)c3ccccc32)c(C)c1 | 7 | 139 | 115 | -5 | · | · | ·
c1nc2n(n1)C1=C(CCCC1)C1(CCCCC1)N2 | · | · | 96 | -5 | i | 1 | ·
Cc1csc(Sc2nc3c(c(=O)[nH]c(=O)n3C)n2CCCc2ccccc2)n1 | · | · | 92 | 12 | i | 1 | -2.9
CN(C)c1ccc(N/C(N)=N/c2nc(C(F)(F)F)cc(C(F)(F)F)n2)cc1 | · | · | 100 | 1 | i | 0.85 | ·
COc1cc(C)c(Br)cc1S(=O)(=O)N1CCOCC1 | 5 | 206 | 103 | -5 | i | 1.2 | 0.1
Cc1noc(C)c1CSc1nc2sc3c(c2c(=O)n1C)CCCC3 | 3 | 76 | 95 | -7 | i | 0.92 | -0.4
COCCCNc1ncnc2c1cnn2-c1ccc(C)cc1C | -22 | 140 | 95 | -7 | i | 0.86 | 0.5
O=C(c1ccc(F)cc1)N1CCN2C(=O)c3ccccc3C12c1ccccc1 (stereo not given) | · | · | 100 | · | i | 0.89 | ·
O=C(CCCc1nc2ccccc2s1)NCc1ccccc1F | 7 | 160 | 107 | 1 | i | 0.89 | -1.1
CCOCC(=O)Nc1ccc(S(=O)(=O)NCCc2ccccc2)cc1 | 5 | 137 | 100 | -7 | i | 0.92 | -0.1
COc1ccccc1NC(=S)N1CCC(NC(=O)C23CC4CC(CC(C4)C2)C3)CC1 | · | · | 74 | 2 | i | 1 | ·
Cc1ccc(NC(=O)CN(C)C(=O)/C=C/c2cccs2)cc1 | 48 | 88 | 95 | -1 | i | 0.99 | -2.9
O=C1CCN(c2ncccc2[N+](=O)[O-])CC1 | 0 | 82 | 99 | 0 | i | 1.1 | ·
O=C(/C=C/c1ccccc1)N/C(=C/c1ccccc1)C(=O)Nc1ccccc1O | · | · | 101 | 10 | i | 1 | -0.5
COC(=O)c1c(C)n(-c2ccccc2)c2ccc(O)cc12 | -9 | 66 | 102 | 7 | i | 0.85 | -3.1
C/C(=N\NC(=O)Cc1cccn1C)c1ccc([N+](=O)[O-])cc1 | · | · | 98 | · | i | 0.89 | ·
CC(NCc1ccc(S(N)(=O)=O)cc1)C(=O)Nc1cccc(Cl)c1 (stereo not given) | · | · | 96 | · | i | 1 | ·
CCOC(=O)c1cc(C(=O)OCC)c(=O)[nH]c1C | 25 | 79 | 99 | -6 | i | 0.91 | -1.4
N#Cc1ccc(Cn2ccnc2C(=O)Nc2ccccc2)cc1 | · | · | 91 | -7 | i | 0.83 | ·
CC(C)OC(=O)c1cc(C(=O)c2cc(Cl)ccc2O)coc1=N | -20 | 140 | 105 | -4 | i | 1.1 | ·
CCC(CC)C(=O)Nc1ccc(C)cc1O | · | · | 104 | -13 | i | 0.97 | ·
The list goes on:
SMILES | INS promoter inh | INS promoter inh cell count | RGS16-Gao | PKD1 inh | HSV replic up | HSV replic up primary fold | GALR2 ag
COc1ccc(NC(=O)c2ccc3ccccc3c2)cc1NS(=O)(=O)c1ccc(F)cc1 | 34 | 120 | 110 | -16 | i | 0.81 | -0.5
S=C(NC12CC3CC(CC(C3)C1)C2)N1CCCC1 | -8 | 141 | 100 | -13 | i | 0.91 | -1.5
CCn1c(-c2nn(-c3ccccc3)ccc2=O)n[nH]c1=S | · | · | 108 | -5 | i | 1 | ·
CC(=O)NCC(=O)N(C)C(C(=O)Nc1ccc(C(C)C)cc1)c1ccccc1 (stereo not given) | 53 | 73 | 92 | 1 | i | 0.77 | -1.2
C=CCNC(=O)C(C)N1C(=O)c2ccccc2C1=O (stereo not given) | 26 | 92 | 67 | -3 | i | 1.1 | 2.2
N#C/C(=C\c1ccc[nH]1)C(=O)NC1CC1 | · | · | 100 | 4 | i | 0.68 | -1.0
COc1ccc(CNC(=O)c2cc3c(s2)CN(Cc2ccccc2)C3)cc1 | · | · | 102 | 6 | i | 1.1 | ·
CCOc1cc(S(=O)(=O)NCCN2CCOCC2)c(C)cc1C | -86 | 114 | 98 | -7 | i | 1 | -1.6
COc1ccc(CCNC(=O)C2CCCN2C(=O)Nc2cccc(C(C)=O)c2)cc1OC (stereo not given) | · | · | 100 | -10 | i | 1 | -3.4
CC(=O)Nc1ccc(-c2csc(N/N=C(/C)c3ccccc3)n2)cc1 | · | · | 99 | · | i | 1 | ·
CN(C)CCCNc1ccc(-c2cc(Nc3cccc(Cl)c3)ncn2)cn1 | · | · | 104 | · | i | 0.72 | ·
CN(C)CCCN(C(=O)COc1ccc(Cl)cc1)c1nc2ccc(F)cc2s1 | 58 | 65 | 67 | -2 | i | 0.97 | ·
COc1ccc(CC(=O)n2[nH]c(=O)cc(C)c2=O)cc1OC | · | · | 92 | · | i | 1.1 | ·

Compound activity: PubChem, several laboratories
